Compound activity as filed in PubChem.
Cruzain inh Det: blocks cruzain activity in presence of Triton detergent | P25779 | purified cruzain, Z-FR-AMC fluorescence, 0.01% Triton | Potency, µM, without a hit: max response, negative = inhibition, hits mostly inhibitors | hit rate 0.43% among 200,000;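 note: plate controls were neutral wells for no effect and buffer without enzyme for full effect; nearly all actives have a fitted effect of over 40% in size; top concentration of the series not given in the record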
Target sequence (P25779 123-467 limits assumed): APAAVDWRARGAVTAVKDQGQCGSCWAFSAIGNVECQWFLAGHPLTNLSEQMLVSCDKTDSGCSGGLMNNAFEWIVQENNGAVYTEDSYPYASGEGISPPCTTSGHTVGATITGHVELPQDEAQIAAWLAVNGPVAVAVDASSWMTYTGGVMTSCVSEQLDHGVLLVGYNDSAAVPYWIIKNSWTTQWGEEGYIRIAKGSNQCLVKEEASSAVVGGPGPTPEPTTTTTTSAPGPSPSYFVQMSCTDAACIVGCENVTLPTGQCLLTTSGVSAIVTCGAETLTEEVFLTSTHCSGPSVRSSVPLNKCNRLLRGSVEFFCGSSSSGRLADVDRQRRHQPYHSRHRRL
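Read-out: AMC fluorescence (360 nm excitation, 450 nm emission), four reads over 2 min, first-to-third difference used. Conditions: cruzain 1.5 nM, Z-FR-AMC 2 uM, pH 5.5 acetate, 5 mM DTT, 0.01% Triton X-100.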
Cruzain inh noDet: cruzain (T. cruzi) inhibition without detergent. purified cruzain, Z-FR-AMC fluorescence, no detergent. Potency, µM, without a hit: max response, negative = inhibition, hits mostly inhibitors. hit rate 2.3% among 200,000;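 note: plate controls were enzyme without inhibitor for no effect and buffer without enzyme for full effect; nearly all actives have a fitted effect of over 40% in size; top concentration of the series not given in the record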
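Detergent-free condition (0.00005% Triton X-100) in acetate buffer pH 5.5 with DTT. 1.5 nM enzyme and compound were pre-mixed 15 min, then 2 uM Z-FR-AMC substrate added; reaction progress from fluorescence change between first and third reads (60 s).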
LASV entry inh: Lassa virus entry inhibition. Lassa virus pseudotype entry inhibition, cell reporter; control for the full effect not named in the record. Potency, µM (series often up to 37.9 µM), without a hit: at the top dose activity change, negative = inhibition, hits mostly inhibitors. hit rate 1.2% among 300,000. AID 540256; active means well fitted inhibition curve with a large enough effect; inconclusive means small, poorly fitted or top-dose-only effect, or effect the other way; inactive means flat fitted curve, though single readings scatter; tested in HEK293 cells; note: % is set by controls: 0 for no effect and ±100 for the full control effect; nearly all actives have a fitted effect of over 50% in size; luciferase read-out
StopGo reporter: lowers the luciferase signal of an FMDV 2A StopGo reporter; human cells with a luciferase reporter of 2A StopGo recoding; control for the full effect not named in the record; Potency, µM (highest dose often 57.9 µM), without a hit: at the top dose signal change, negative = less light; hit rate 1.2% among 410,000; active = well fitted falling curve with a large enough effect; inconclusive = small, poorly fitted or top-dose-only effect; inactive = no such curve, though single readings can be large or run the other way; tested in HEK293T cells; note: % is set by controls: 0 for no effect and ±100 for the full control effect; nearly all actives have a fitted effect of over 45% in size; luciferase light after 4 h
NS1 inh: influenza NS1 inhibition; hit rate 0.4% among 270,000; Potency, µM (titrated, usually from 46.1 µM), without a hit: top-dose activity, positive = more growth; S. cerevisiae slowed by influenza A NS1, growth recovery by OD600; AID 2326; active means well fitted rising curve with a large enough effect; inconclusive means small, poorly fitted or top-dose-only effect; inactive means no such curve, though single readings can be large or run the other way; note: nearly all actives have a fitted effect of over 50% in size
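Growth recovery, yeast-based: influenza A NS1 expressed in S. cerevisiae causes slow growth, and suppressors are detected by OD600. The parent strain without NS1 is used as positive control.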
MARV entry inh: blocks Marburg virus binding to or entry into cells. Marburg virus pseudotyped entry inhibition, cell reporter; control for the full effect not named in the record; about a third of the inactives were read at about 46 µM. Potency, µM (titrated, usually from 37.8 µM), for inactives: at the top dose activity change, negative = inhibition, most hits filed as inhibitors. hit rate 1.8% among 300,000. AID 540276; active = well fitted inhibition curve with a large enough effect; inconclusive = small, poorly fitted or top-dose-only effect, or effect the other way; inactive = flat fitted curve, though single readings scatter; tested in HEK293 cells; about a fifth of its hits are not listed in these tables; note: % is set by controls: 0 for no effect and ±100 for the full control effect; luciferase read-out
RE007 growth inh: less growth of the S. pombe RE007 Vpr strain | hit rate 0.21% among 360,000 | S. pombe RE007 Vpr strain, BacTiter-Glo ATP luminescence, 24 h; control for the full effect not named in the record | AID 651644 | Potency, µM (titrated, usually from 92.2 µM), inactives show at the top dose activity change, negative = less growth; active = well fitted falling curve with a large enough effect; inconclusive = small, poorly fitted or top-dose-only effect; inactive = no such curve, though single readings can be large or run the other way;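 note: % is set by controls: 0 for no effect and ±100 for the full control effect; nearly all actives have a fitted effect of over 50% in size; the assay follows cell death caused by Vpr and the record does not say whether a fall means rescue or toxicity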
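Fission yeast strain RE007, carrying one chromosomally integrated HIV-1 vpr copy, was seeded at OD 0.01 in PMG+AL medium with 23 nL pinned compound. After 24 h at 30 °C and 99% humidity, viability was read by BacTiter-Glo luminescence.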
SARS PLpro yeast: inhibitors of SARS-CoV papain-like protease in yeast; S. cerevisiae expressing SARS-CoV PLpro, growth rescue; control for the full effect not named in the record; Potency, µM (doses to about 32.9 µM), without a hit: top-dose activity, positive = growth rescue; AID 485353; hit rate 0.19% among 330,000; active means well fitted rising curve with a large enough effect; inconclusive means small, poorly fitted or top-dose-only effect; inactive means no such curve, though single readings can be large or run the other way; note: 0% is about no effect; nearly all actives have a fitted effect of over 55% in size; growth read by luminescence after 48 h
* hit, by the source's call; ? = inconclusive; nt = no result given; & = joins results of further samples; [ ] = remark or other dose. Unless noted, calls come from the whole dose curve; as a rule, active = well fitted curve in the direction sought with a large enough effect; inconclusive = small, poorly fitted or top-dose-only effect, or another doubt; inactive = no such curve, though single readings can be large; an effect the other way counts as inactive or inconclusive. Potency is the fitted concentration of half-maximal effect.

SMILES | Cruzain inh Det | Cruzain inh noDet | LASV entry inh | StopGo reporter | NS1 inh | MARV entry inh | RE007 growth inh | SARS PLpro yeast
CCN1CCCC1CNCc1cccc(OC)c1OCc1ccccc1F (configuration not stated) | 3.6% | -4.9% | -27.7% | nt | 20.6% | ? | 4.2% | -2.4%
Cc1ccccc1C(=O)Nc1ccc(CN2CCOCC2)cc1 | nt | nt | nt | 11.8% | 9.0% | nt | 6.6% | -0.4%
COc1ccc(CCn2c(=O)[nH]c3cc(C(=O)N4CCN(c5ccccn5)CC4)ccc3c2=O)cc1OC | nt | nt | 1.3% | -9.7% | nt | -8.4% | -4.7% | -5.5%
Cc1ccccc1NC(=S)NNC(=O)c1csc2c1CCC(C)C2 (configuration not stated) | -3.8% | 15.3% | -24.1% | ? | -14.4% | ? | -22.8% | -4.7%
COCC1CCN(Cc2nc(-c3cccs3)no2)C1 (configuration not stated) | nt | nt | 10.0% | 45.7%[activator] | 8.0% | -12.9%[46.1 µM] | 17.7% | 2.1%
Cn1c(=O)c2c(nc(Cl)n2CCOc2ccccc2)n(C)c1=O | nt | nt | nt | ? | -16.7% | nt | -3.1% | -4.7%
CCc1ccc(N2C(=O)C3NN=C(C(=O)OCc4ccccc4)C3C2=O)cc1 (configuration not stated) | -7.6% | -5.9% | 0.6% | -8.3% | -19.9% | ? | 8.8% | 16.3%
Fc1ccc(/C=N/c2c(-c3ccc(F)cc3)nc3n2CCS3)cc1 | -9.3% | -23.6% | -13.1% | -4.0% | 25.7% | 2.0%[46.1 µM] | -19.3% | -5.3%
FC(F)(F)c1ccc(-c2nc(=S)[nH][nH]2)cc1 | nt | nt | 18.6%[46.1 µM] | -9.7% | -0.3% | ? | 56.1% | 1.2%
COc1cc(Cl)c(C)cc1NC(=O)COc1ccccc1[N+](=O)[O-] | 7.8% | ? | 21.8% | 16.9% | 6.9% | -4.5% | -11.6% | 7.8%
COc1cccc(CNC(=O)c2cc3cccc4c3n2CC(C)S4)c1OC (configuration not stated) | -10.7% | -18.5% | -11.4%[46.1 µM] | -10.4% | nt | nt | nt | nt
Cc1ccc(C)c(NS(=O)(=O)c2cc(C(=O)NCc3ccco3)ccc2C)c1 | -1.8% | 1.2% | ? | 40.4%[activator] | 5.0% | -18.0% | 19.4% | -10.4%
Cc1ccccc1NC(=O)c1ccc(NC(=O)N2CCSc3ncccc32)cc1 | -6.1% | 3.4% | 30.3%[46.1 µM] | ? | nt | nt | nt | nt
CC(=O)c1ccc(Nc2ccc3cc(S(=O)(=O)N4CCCC4)ccc3n2)cc1 | -9.5% | -13.6% | -7.1%[46.1 µM] | -12.5% | nt | nt | nt | nt
Cc1cccc(OCc2nnc(SCC(=O)O)n2Cc2ccccc2)c1 | nt | nt | -10.1% | -5.8% | 1.8% | -9.5%[46.1 µM] | -10.0% | 1.3%
CCc1ccc(C(=O)c2cn(CC(=O)Nc3ccc(OC)c(OC)c3)c3ccc(C)cc3c2=O)cc1 | -9.3% | 8.8% | -18.9%[46.1 µM] | 2.7% | nt | ? | nt | nt
C/C(=N\NC(=O)CC#N)C1COc2ccccc2O1 (configuration not stated) | nt | nt | ? | -2.2% | 3.4% | -7.7%[46.1 µM] | 5.0% | -0.9%
COc1cccc(N2CCN(C(=O)CN3CCSc4ccc(S(=O)(=O)N(C)C)cc43)CC2)c1 | -3.6% | ? | -8.7%[46.1 µM] | -22.4% | nt | nt | nt | nt
Cc1cc(C)cc(OCc2nnc(N)s2)c1 | nt | nt | 4.0%[46.1 µM] | 9.3% | -6.1% | ? | 1.0% | -0.5%
Cc1ccc(C(=O)NCCCn2ccnc2)cn1 | 5.1% | 5.4% | -8.3% | -15.3% | 5.9% | -11.6% | 9.0% | 2.9%
CC(NC(=O)CN(C)S(=O)(=O)c1cccc2nsnc12)c1ccccc1 (configuration not stated) | nt | nt | nt | -2.1% | -4.2% | nt | 1.7% | 0.4%
Cc1ccccc1NC(=O)Cn1c(=O)n(Cc2ccc3c(c2)OCO3)c(=O)c2ccccc21 | -2.0% | -12.1% | -11.3%[46.1 µM] | -14.7% | nt | -19.3%[46.1 µM] | nt | nt
COc1ccc(S(=O)(=O)N2CCN(CC(=O)Nc3ccc(F)c(F)c3)CC2)cc1 | 1.3% | 6.8% | 11.5% | -14.3% | -92.6% | -0.1% | 44.6% | -5.8%
CCCCCSc1nc(C)c(CC(=O)O)c(=O)[nH]1 | 0.5% | 14.4% | 19.5% | 5.0% | 14.1% | 10.1%&10.1% | 1.5% | 3.8%
C1CN(c2nc3nonc3n3nnnc23)CCO1 | -5.1% | -8.9% | 7.6% | 14.0% | -56.6% | 19.2% | 12.0% | 0.3%
Cc1ccc(C)c(Cn2cnc3ccccc3c2=O)c1 | -2.9% | 2.4% | -1.0%[46.1 µM] | 20.2% | nt | -11.6%[46.1 µM] | nt | nt
N#Cc1c(Cl)cccc1Oc1ccc(S(=O)(=O)Nc2ccccc2)cc1 | nt | nt | ? | -24.6% | 9.4% | 0.0%[14.2 µM] | -8.0% | -1.4%
CC(=O)c1cccc(NC(=O)CO/N=C2/CCCc3nonc32)c1 | nt | nt | 6.5% | -5.4% | nt | 19.6%[46.1 µM] | 2.2% | -0.5%
O=C1CC(c2ccco2)CC(O)=C1C=NCCO (configuration not stated) | 2.9% | -7.7% | 6.5% | -5.9% | -12.3% | 2.9% | 2.8% | 4.5%
Cc1ccc(-n2cc(CNCCCn3ccnc3C)c(-c3ccc(F)cc3)n2)cc1 | nt | nt | ? | -24.5% | -0.4% | ? | 1.0% | 1.4%
Cc1cc(C)c(-c2cc(C(=O)Nc3cc(C)ccc3C)[nH]n2)c(O)c1 | nt | nt | nt | -10.1% | 6.2% | nt | -6.9% | 0.8%
Cc1cccc(C(=O)Nc2ccc3ccccc3c2)c1 | nt | nt | nt | 24.6% | -29.7% | nt | -15.6% | -6.4%
CC(C)N(Cc1nccn1C)C(=O)CC1C(=O)NCCN1Cc1ccc(F)cc1 (configuration not stated) | nt | nt | nt | -4.4% | -8.0% | nt | -4.9% | 0.4%
COc1ccc(N2CCN(C(=O)c3cnn(-c4ccc(OC)cc4)c3C3CCN(C(=O)OC(C)(C)C)CC3)CC2)cc1 | -0.4% | -3.8% | ? | 2.9% | nt | nt | nt | nt
CCN1C(=O)/C(=C\N2CCN(c3ccccc3)CC2)SC1=S | -6.6% | 12.0% | -0.3% | ? | -23.9% | 2.0% | 1.7% | -1.4%
Cc1cc(C(=O)COC(=O)c2ccc[nH]c2=O)c(C)n1-c1ccccc1F | nt | nt | nt | ? | -79.9% | nt | 8.9% | 0.1%
OCCCn1c(-c2ccccc2)nc(=S)c2c1CCCC2 | -6.2% | 1.6% | 9.6% | -9.4% | ? | 16.0% | 11.0% | -1.4%
COc1ccc(CNC(=O)c2ccccc2NC(=O)C2=CSCCO2)c(OC)c1 | nt | nt | nt | -19.7% | -3.4% | nt | 3.7% | 0.0%
Cc1cccc(CS(=O)(=O)CC2Nc3ccc(C(=O)NCc4ccccc4)cc3NC2=O)c1 (configuration not stated) | -4.5% | -4.0% | -3.8%[46.1 µM] | -10.3% | nt | nt | nt | nt
Cc1ccc(C)c(/C(O)=C2\C(=O)C(=O)N(CCCn3ccnc3)C2c2cccnc2)c1 (configuration not stated) | -5.8% | -4.5% | 19.1% | -2.5% | -0.1% | 10.4% | -5.7% | -3.5%

Part of the list above in order of length of the SMILES, falling:
SMILES | Cruzain inh Det | Cruzain inh noDet | LASV entry inh | StopGo reporter | NS1 inh | MARV entry inh | RE007 growth inh | SARS PLpro yeast
Cc1ccc(C)c(/C(O)=C2\C(=O)C(=O)N(CCCn3ccnc3)C2c2cccnc2)c1 (configuration not stated) | -5.8% | -4.5% | 19.1% | -2.5% | -0.1% | 10.4% | -5.7% | -3.5%
CC(C)N(Cc1nccn1C)C(=O)CC1C(=O)NCCN1Cc1ccc(F)cc1 (configuration not stated) | nt | nt | nt | -4.4% | -8.0% | nt | -4.9% | 0.4%
C1CN(c2nc3nonc3n3nnnc23)CCO1 | -5.1% | -8.9% | 7.6% | 14.0% | -56.6% | 19.2% | 12.0% | 0.3%

(list continues)
SMILES | Cruzain inh Det | Cruzain inh noDet | LASV entry inh | StopGo reporter | NS1 inh | MARV entry inh | RE007 growth inh | SARS PLpro yeast
COc1ccccc1NC(=O)N1CCN(c2cc(-c3ccccc3)nc3ncnn23)CC1 | -0.6% | 4.8% | -27.5% | 31.6µM* | 6.9% | ? | 0.0% | 0.8%
COc1cc(NC(=O)c2cc(Cl)nnc2Cl)cc(OC)c1OC | nt | nt | nt | -10.9% | -0.6% | nt | 3.5% | 0.5%
COc1ccc(CNC(=O)c2cc3c(C)nc4ccccc4c3o2)c(OC)c1 | 4.0% | ? | nt | ? | -145.9% | nt | 6.2% | 8.4%
COC(=O)N/N=C/c1ccc(-c2cccc(Cl)c2)o1 | -10.9% | 1.8% | 12.5% | 30.1%[activator] | -44.0% | -1.1% | -14.4% | -65.3%
Cc1c(C(=O)NC(C)CCc2ccccc2)cccc1[N+](=O)[O-] (configuration not stated) | 2.8% | -0.1% | 15.5% | -28.9% | -8.6% | -17.0% | -8.2% | 6.4%
COc1ccc(NC(=O)Cc2coc3cc(C)c(C(C)C)cc23)cc1S(=O)(=O)N1CCOCC1 | -8.9% | ? | ? | 0.0% | 11.2% | ? | 10.4% | -13.6%
Cc1ccc2nc(-c3ccccc3)cc(C(=O)NCC(c3ccco3)N(C)C)c2c1 (configuration not stated) | nt | nt | 8.2% | -3.0% | nt | ? | -24.2% | 0.5%
O=C(NCc1ccccc1)c1cccc(COc2ccc3c(c2)CCC3)c1 | -4.7% | 3.4% | ? | -10.1% | -10.9% | ? | 1.5% | -6.9%
Cn1c(=O)c2c(nc(N/N=C/c3c(O)n(-c4ccccc4)c(=S)[nH]c3=O)n2C)n(C)c1=O | -5.6% | -12.4% | -2.2% | 3.8% | -2.4% | -0.5% | 5.4% | 12.6%
O=C(NC(=S)Nc1ccc(N2CCCCC2)cc1)c1ccc2c(c1)OCCO2 | -4.1% | 25.1µM* | ? | -28.2% | 13.6% | 4.9% | -10.0% | 12.1%
